Screening results from PubChem BioAssay.
VCAM-1 rise: enhancers of VCAM-1 display on endothelial cells, cell-based, plate reader, pooled HUVEC, TNFa stimulus (AID 455). HUVEC TNFa-induced VCAM-1 immunofluorescence, plate reader; numbers were filed only for top-ranked candidate wells. augmentation, % at 5 µM. 0.2% of 10,000 active;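 active = a compound raising TNF-alpha-driven VCAM-1 surface staining, with its hit status upheld on visual or statistical review; inactive = the rest, including hits rejected on review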;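 note: 0% = TNFa with vehicle and 100% = strongest image-checked hit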
Proteasome disasm: blocks ATP-dependent breakdown of the yeast 26S proteasome. AID 751. 0.2% of 24,000 active. anti-FLAG beads, GFP-proteasome disassembly, flow cytometry. inhibition of disassembly, % (test concentration not listed);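 active = above 40%; inconclusive = likely self-fluorescent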;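 note: plate controls were ATP control with full disassembly for no effect and ATP-gamma-S intact proteasomes for full effect; higher percent means more bead fluorescence retained so stronger block of disassembly; stock transfer was 100 nL into about 10 µL; wells with too few beads may also be inconclusive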
An asterisk follows results filed as active; i = inactive; ? = inconclusive; nt = no result given.

SMILES | VCAM-1 rise | Proteasome disasm
O=C1CSC(c2ccccc2)N1CC12CC3CC(CC(O)(C3)C1)C2 (configuration not stated) | nt | -0.9
Cc1c2c(nc3c(C(=O)NC4CCCCC4C)cnn13)CCCC2 (configuration not stated) | nt | 0.2
CCC1CCCCN1C(=O)CSc1nnc(-c2ccc(Cl)cc2)o1 (configuration not stated) | nt | 0.7
Clc1ccc2c(c1)C(N1CCNCC1)=Nc1ccccc1O2 | i | -0.6
CCC(C)NC(=O)c1cc(-c2ccc(OC)cc2)on1 (configuration not stated) | i | 2.3
O=C1CCC(=O)N1OCCCCOc1ccccc1 | i | 3.7
Cc1cc(=O)[nH]c2c1cnn2Cc1ccccc1 | i | 1.8
CCOC(=O)N1CCC(N2C(=O)c3ccccc3C2Nc2cc(Cl)c(OC)cc2OC)CC1 (configuration not stated) | i | -0.5
Cc1nc(NCc2ccco2)c2oc3ccccc3c2n1 | i | 0.8
Cc1cc(C)nc(NC(=O)c2c(-c3c(Cl)cccc3Cl)noc2C)n1 | i | 4.5
CC(=O)c1cccc(NC(=O)c2cc(C(C)C)on2)c1 | nt | -1.5
CCCCC(NC(C)=O)c1nc2ccccc2n1CCC (configuration not stated) | i | 4.3
CN(C)C(=O)N1CCC(C(=O)NCc2ccc(F)cc2)CC1 | nt | -8.7
Cc1cc(NC(=O)c2cc(-c3cccc(Cl)c3)on2)no1 | nt | 0.9
CCOC(=O)c1ccc(NC(=O)CSC2=NC(=O)C(CC)C(=O)N2)cc1 (configuration not stated) | i | -0.4

Among those listed so far, these have an aryl methoxy group.
SMILES | VCAM-1 rise | Proteasome disasm
CCC(C)NC(=O)c1cc(-c2ccc(OC)cc2)on1 (configuration not stated) | i | 2.3
CCOC(=O)N1CCC(N2C(=O)c3ccccc3C2Nc2cc(Cl)c(OC)cc2OC)CC1 (configuration not stated) | i | -0.5

The listing continues.
SMILES | VCAM-1 rise | Proteasome disasm
Cc1nc2nc(C)c(CCC(=O)Nc3ccc4c(c3)OCO4)c(C)n2n1 | nt | 0.1
COc1ccccc1N(CC(=O)NC1CCCC1)C(=O)c1csnn1 | i | -0.2
CN(C(=O)c1ccc2c(c1)OCO2)C1(C(=O)NC2CCCC2)CCCCC1 | nt | 8.5
CC1CCN(C(=O)CSc2nnc(Cn3c(=O)sc4ccccc43)n2C)CC1 | nt | 1.1
CC1CCc2nn(CC(=O)NC3CCCC3)cc2C1 (configuration not stated) | nt | 1.1
O=C(CSc1nnc(CNC(=O)c2cccs2)o1)Nc1ccc2c(c1)OCO2 | nt | -1.4
COCc1cc(C)nc(SCC(=O)Nc2cc3c(cc2C#N)OCO3)c1C#N | nt | 1.3
COc1cc(OC)cc(OCC(O)Cn2cnc3cc(C)c(C)cc32)c1 (configuration not stated) | nt | 0.3
CCOC(=O)C1CCCN(CCCc2ccccc2)C1 (configuration not stated) | i | -2.1
CCOc1ccc(S(=O)(=O)Nc2ccccc2SC)c2cccnc12 | nt | 1.3
CCOc1ccc(-c2noc(CCC(=O)O)n2)cc1 | nt | -0.8
Nc1cccc(-n2nncc2-c2ccccc2)c1 | nt | -0.1
COc1ccccc1S(=O)Cc1ccc(C(=O)O)o1 (configuration not stated) | nt | 1.5
O=C(C1CCCCC1)N1CCN=C1SCc1cccnc1 | nt | -0.7
Nc1nc(CSc2nnc(-c3cccc(F)c3)n2-c2ccccc2)nc(N2CCOCC2)n1 | nt | -0.8
FC(F)(F)c1cc(-c2ccco2)nc(-n2cnc3ccccc32)n1 | nt | -1.0
COCCNC(=O)c1ccc(CS(=O)(=O)c2ccc(Cl)cc2)o1 | nt | -2.5
COc1ccccc1NC(=O)c1cn(C)c(=O)c2cc(OC)c(OC)cc12 | nt | 1.2
Cc1ccc(NC(=O)C2CC(c3ccc(F)cc3)=NO2)cc1 (configuration not stated) | nt | 0.4
CC(C)c1nc(NCC2CCCO2)c(C#N)c2c1COC(C)(C)C2 (configuration not stated) | i | -2.3
CC(=O)OCC(=O)[C@@]12OC(C)(C)O[C@@H]1C[C@H]1[C@@H]3C[C@H](F)C4=CC(=O)C=C[C@]4(C)[C@@]3(F)[C@@H](O)C[C@@]12C | i | -0.1
CCCCN1C(=O)CN(CCc2ccccc2)C(=O)C1c1ccc(OC)cc1 (configuration not stated) | nt | -1.4
CCOC(=O)C(CC)Sc1ncnc2c1nnn2-c1ccc(F)cc1 (configuration not stated) | nt | 3.3
O=C(O)c1ccc(-n2nnnc2SCc2ccccc2F)cc1 | nt | 0.8
CN(C)S(=O)(=O)n1cnc(-c2ccccc2)c1-c1ccccc1 | i | 1.6
COc1ccc(C(=O)OCC(=O)NCc2ccco2)cc1OC | i | 2.0
CCOc1ccc(N(CC(=O)NC2CCCC2)S(=O)(=O)c2c(C)[nH]c(=O)[nH]c2=O)cc1 | i | -0.5
C=COC(=O)CSc1snc(SCC(=O)OC)c1C#N | i | 0.5
COc1cc(NC(=O)c2cc(C)on2)cc(OC)c1OC | nt | -2.8
CCN(CC)CCCNC(=O)Cc1c(C(=O)O)n(C)c2ccccc12 | nt | 0.8
Cc1ccccc1CN1CCN(CC(=O)NCc2ccccn2)C1=O | nt | 0.6
COc1cc(Br)cc(CN2CCN(C/C=C/c3ccccc3)CC2)c1O | i | 0.6
O=C(CSc1nc(-c2ccccc2Cl)ns1)NCc1ccco1 | nt | -1.4
CN=C(Nc1cc(C)nn1-c1ccccc1)c1ccccc1 | i | -1.8
Cc1cc(C)n(-c2nc3sc4c(c3c3nnc(SC(C)C)n23)CC(C)(C)OC4)n1 | i | 2.7
O=C(Cn1ccc2ccccc2c1=O)Nc1ccc2c(c1)OCO2 | i | 0.8
CCc1nn(CC(=O)NCCCN(Cc2ccccc2)C(C)C)c(=O)c2cc3sccc3n12 | nt | 0.8
O=C(O)CCC(=O)Nc1ccc(-c2nnc(-c3ccco3)o2)cc1 | nt | 2.0
CSc1ccccc1N=CC1=C(O)CC(C)(C)CC1=O | i | -0.2
CCCCNC(=O)CS(=O)Cc1nc(-c2ccc(C)cc2)oc1C (configuration not stated) | nt | -0.5
O=C(COC(=O)c1ccccc1C(=O)c1ccccc1)c1ccco1 | i | -1.7
O=C(Cn1ncc2c1-c1ccccc1OC2)N1CCN(c2ccccn2)CC1 | i | -0.2
Cc1ccc(N2CCN(C(=S)c3ccc(N(C)C)cc3)CC2)cc1 | i | 6.3
O=C(NCCN1CCN(c2ccccc2F)CC1)C1CCCN(S(=O)(=O)c2cnc[nH]2)C1 (configuration not stated) | nt | -1.0
O=C1c2ccccc2C(=O)N1CCC(=O)N1CCc2ccccc21 | i | -1.1

Single records (already shown):
CN(C)S(=O)(=O)n1cnc(-c2ccccc2)c1-c1ccccc1 reads VCAM-1 rise: i; Proteasome disasm: 1.6
O=C(O)c1ccc(-n2nnnc2SCc2ccccc2F)cc1 reads VCAM-1 rise: nt; Proteasome disasm: 0.8

Some of the entries so far, with tabs.
SMILES	VCAM-1 rise	Proteasome disasm
O=C(COC(=O)c1ccccc1C(=O)c1ccccc1)c1ccco1	i	-1.7
O=C(Cn1ncc2c1-c1ccccc1OC2)N1CCN(c2ccccn2)CC1	i	-0.2

Next section.
SMILES | VCAM-1 rise | Proteasome disasm
Cc1nc2ccc(F)cc2cc1C(=O)NCC1CCCO1 (configuration not stated) | i | 8.6
CCOC(=O)N1CCC(NC(=O)c2cc3c(-c4cccc(OC)c4)nn(C)c3s2)CC1 | nt | 1.0
Nc1c(C(=O)NCCc2ccccc2)nnn1Cc1ccccc1 | i | -2.4
Cc1onc(-c2c(F)cccc2Cl)c1C(=O)Nc1nc2c(s1)CCCC2 | i | 1.0
CCOc1ccc(CNC(=O)C2CC(=O)N(C3CCCC3)C2)cc1OC (configuration not stated) | nt | -0.1
C=C1N(CCCCCC(=O)O)C(=O)OC12CCCCC2 | nt | 1.4
O=C(CSc1nnc(C2CC2)n1Cc1ccccc1)c1ccc(S(=O)(=O)N2CCOCC2)cc1 | i | 4.6
C[C@H]1C[C@@H]2[C@H]([C@@H](O)C[C@@]3(C)[C@H]2CC[C@]3(O)C(=O)CO)[C@@]2(C)C=CC(=O)C=C12 | i | 0.3
O=C(NC1CCCC1)c1ccc2nc(-c3ccco3)c(-c3ccco3)nc2c1 | nt | 0.5
CC12CC(NC(=O)N1CCc1ccccc1)c1cc(Cl)ccc1O2 (configuration not stated) | nt | 2.4
CC(C)(C)n1ncc2c(=O)n(Cc3ccc(Cl)cc3Cl)cnc21 | nt | 0.1
CCN1CCN(CCCNC(=O)C2c3ccccc3C(=O)N(C)C2c2ccc(OC)cc2)CC1 (configuration not stated) | i | 0.8
CC(C)C(NS(=O)(=O)c1cccs1)C(=O)N1CCc2ccccc2C1 (configuration not stated) | nt | 2.9
CCN(CC)S(=O)(=O)N1CCC(C(=O)NCC2COc3ccccc3O2)CC1 (configuration not stated) | i | -0.6
O=C(Nc1ccc(N2CCN(Cc3ccccc3Cl)CC2)cc1)c1cccnc1 | i | -0.4

Looked up above.
Entry of CCN(CC)S(=O)(=O)N1CCC(C(=O)NCC2COc3ccccc3O2)CC1 (configuration not stated) under Proteasome disasm: -0.6
Entry of Cc1onc(-c2c(F)cccc2Cl)c1C(=O)Nc1nc2c(s1)CCCC2 under Proteasome disasm: 1.0

The results go on:
SMILES | VCAM-1 rise | Proteasome disasm
Cc1cc(=O)n2[nH]c(COc3ccccc3)nc2n1 | i | -3.5
COCCNC(=O)CNS(=O)(=O)c1ccc2nc(C)sc2c1 | nt | ?
O=C(CCCCCn1c(SCC(=O)c2ccccc2)nc2ccccc2c1=O)NCc1ccco1 | nt | 3.8
O=c1oc2ccccc2c(O)c1C=NCc1ccccn1 | i | 0.2
COc1ccc2nc(NC(=O)CCNS(=O)(=O)c3ccc4c(c3)oc(=O)n4C)sc2c1 | nt | -3.2
CCOC(=O)Cn1c(=N)n(Cc2ccccc2)c2ccccc21 | nt | -1.2
Cc1cc(OCC(=O)Nc2cc(-c3nn4c(C)nnc4s3)ccc2C)ccc1Cl | nt | -0.5
CCCCCn1c(=O)[nH]c2cc(C(=O)NCCN(CC)CC)ccc2c1=O | nt | 1.5
Cc1cccc(C(=O)N2CCC(n3nnc4cc(F)ccc43)CC2)c1 | i | -0.4
O=C(C1CCN(S(=O)(=O)c2cccc3cccnc23)CC1)N1CCCC1 | nt | -0.8
O=C(Cn1cc2c(n1)CCCCC2)NCc1ccccn1 | nt | 0.3
CN(CC(O)COCc1cccs1)C1CCCCC1 (configuration not stated) | i | 0.3
O=C(O)C1CCCN1C(=O)Nc1ccc(F)cc1 (configuration not stated) | i | -1.9
CCOC(=O)Cn1c(CN(C)Cc2ccccc2)nc2c1c(=O)n(C)c(=O)n2C | i | 1.6
Brc1cnc(N2CCCC2)nc1N1CCCCC1 | nt | -1.0
COc1ccc(OC)c(C2C(C(N)=O)=C(C)Nc3nc(-c4cccc(Cl)c4)nn32)c1 (configuration not stated) | nt | -0.6
N#Cc1nc(-c2cccs2)oc1NCCc1ccccc1 | i | -1.3
O=c1cc(CN2CCN(c3ccc(F)cc3)CC2)nc2sccn12 | i | 1.1
CCC(C)NC(=O)Cn1cc2c(n1)CCC(C)C2 (configuration not stated) | nt | -1.6
Cc1nnc(SCC(=O)NCc2ccccc2)s1 | i | 0.9
CCC(Sc1nc(=O)cc(N)n1CCc1ccccc1)C(=O)Nc1cc(C)on1 (configuration not stated) | nt | -1.7
O=C1Nc2ccc(S(=O)(=O)N3CCCC3C(=O)O)c3cccc1c23 (configuration not stated) | nt | -0.9
CN(C)c1nc(Oc2ccc(=O)n(C)n2)nc(N2CCOCC2)n1 | i | -1.3
COc1cc(NC(=O)C2CCCN2S(=O)(=O)c2ccc3c(c2)CCC(=O)N3)cc(OC)c1 (configuration not stated) | nt | -2.1
CCOC(=O)c1cnc(SC2CC(=O)N(c3ccc(OC)c(OC)c3)C2=O)nc1N (configuration not stated) | i | 3.0
Cc1cc(C)n(CCCNC(=O)c2ccc(S(=O)(=O)NCc3ccco3)cc2)n1 | i | -1.4
O=C(CN1CCN(c2ccc(Cl)cc2)CC1)Nc1cccc(F)c1 | nt | -0.5
NC(=O)C1(N2CCCCC2)CCN(C(=O)Nc2ccccc2C(F)(F)F)CC1 | i | 0.4
COc1ccccc1C1CC(=O)NC(C)=C1C(=O)OCC(C)C (configuration not stated) | nt | -0.7
Cc1cccn2c(=O)c3cc(C(=O)N4CCc5ccccc5C4)n(C)c3nc12 | nt | -0.2
O=C(CCn1[nH]c(=O)c2ccccc2c1=O)NCCO | i | -0.1
CCOC(=O)CSc1nnc(CNC(=O)c2ccc(OC)cc2)n1Cc1ccccc1 | nt | -0.1
N#Cc1cc2ccc(N3CCOCC3)cc2cc1C#N | i | -2.2
Cc1cc(C)n(-c2cc(N3CCOCC3)ncn2)n1 | i | -0.7
O=C1NCCCN1Cc1ccc(F)cc1Cl | nt | 1.9
CCOC(=O)N1CCC(n2c(SCC(=O)NCc3ccco3)nc3ccsc3c2=O)CC1 | i | 0.8
O=C(c1cc(-c2ccncc2)nc2ccccc12)N1CCN(c2ccccn2)CC1 | nt | 1.5
O=C(NCc1ccccc1)C1CCN(S(=O)(=O)N2CCOCC2)CC1 | nt | 1.6
O=C(c1ccc(C(F)(F)F)cc1)N1CCCCC1 | nt | -1.1
COCc1cc(=O)n2c(-c3ccc(C)cc3)n[nH]c2n1 | nt | -1.8
CCC(=O)N1CCc2cc(S(=O)(=O)NCCC(=O)NC3CCCc4ccccc43)ccc21 (configuration not stated) | nt | 1.4
CCOC(=O)c1cccc(NS(=O)(=O)c2cnc[nH]2)c1 | nt | -2.0
COc1ccc(Nc2ccnc3ccccc23)cc1 | nt | -2.5
CC1CCCCC1NC(=O)CCn1c(=O)oc2ccccc21 (configuration not stated) | nt | -0.9
O=C(CN1C(=O)CC(c2ccco2)Sc2ccccc21)NCc1ccc2c(c1)OCO2 (configuration not stated) | nt | 2.4

A portion of the library; count on the stated rates, not on these rows.
